# B2AR ag: human beta-2 adrenergic receptor agonism by FAP | AID 504454 | response, % (test concentration not listed) | P07550 | Am2.2-beta2AR cells, FAP receptor internalization, flow cytometry; reference of the scale not given here | 340,000 tested, 0.43% active;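 active means response above a set limit, near 3 SD of response in nonfluorescent compounds, cut at about 42% in these data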;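 further: stock transfer was 100 nL into about 11 µL; a reference agonist was the positive control; negative values mostly stem from fluorescent compounds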
# A1 inh: inhibitors of the anti-apoptotic protein A1, read as caspase activation; AID 2462; 330,000 tested, 0.066% active; MEF A1-2A-BIM cells, Caspase-Glo 3/7 luminescence, 3 h; percent of clofoctol response, vehicle zero; caspase activation, % (concentration not given with the values);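 active means over half of replicate activation scores above 10%, or exactly half above 10 with the replicate mean above 10; inconclusive means replicate mean below 10 yet half the replicates above 10; inactive means over half of replicates below 10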;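 further: wells of about 30 µL received 50 nL stock; many hits fall short of the cut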
# LANA-H2A inh: blocks KSHV LANA binding to histone H2A/H2B | AID 2629 | 320,000 tested, 0.6% active | Q9QR71 | inhibition, % (no concentration beside the values) | cell-free LANA-H2A/H2B peptide, fluorescence polarization; in the data active means inhibition mostly above about 10%, no sharp cut-off; inactive means mostly below about 6.7%;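 further: stock transfer was 7.5 nL into about 10 µL; 0% = median of vehicle wells and 100% = median of positive control wells; one replicate is shown; the record names a cut of 25% in any replicate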
# Target sequence (Q9QR71 whole entry, looked up): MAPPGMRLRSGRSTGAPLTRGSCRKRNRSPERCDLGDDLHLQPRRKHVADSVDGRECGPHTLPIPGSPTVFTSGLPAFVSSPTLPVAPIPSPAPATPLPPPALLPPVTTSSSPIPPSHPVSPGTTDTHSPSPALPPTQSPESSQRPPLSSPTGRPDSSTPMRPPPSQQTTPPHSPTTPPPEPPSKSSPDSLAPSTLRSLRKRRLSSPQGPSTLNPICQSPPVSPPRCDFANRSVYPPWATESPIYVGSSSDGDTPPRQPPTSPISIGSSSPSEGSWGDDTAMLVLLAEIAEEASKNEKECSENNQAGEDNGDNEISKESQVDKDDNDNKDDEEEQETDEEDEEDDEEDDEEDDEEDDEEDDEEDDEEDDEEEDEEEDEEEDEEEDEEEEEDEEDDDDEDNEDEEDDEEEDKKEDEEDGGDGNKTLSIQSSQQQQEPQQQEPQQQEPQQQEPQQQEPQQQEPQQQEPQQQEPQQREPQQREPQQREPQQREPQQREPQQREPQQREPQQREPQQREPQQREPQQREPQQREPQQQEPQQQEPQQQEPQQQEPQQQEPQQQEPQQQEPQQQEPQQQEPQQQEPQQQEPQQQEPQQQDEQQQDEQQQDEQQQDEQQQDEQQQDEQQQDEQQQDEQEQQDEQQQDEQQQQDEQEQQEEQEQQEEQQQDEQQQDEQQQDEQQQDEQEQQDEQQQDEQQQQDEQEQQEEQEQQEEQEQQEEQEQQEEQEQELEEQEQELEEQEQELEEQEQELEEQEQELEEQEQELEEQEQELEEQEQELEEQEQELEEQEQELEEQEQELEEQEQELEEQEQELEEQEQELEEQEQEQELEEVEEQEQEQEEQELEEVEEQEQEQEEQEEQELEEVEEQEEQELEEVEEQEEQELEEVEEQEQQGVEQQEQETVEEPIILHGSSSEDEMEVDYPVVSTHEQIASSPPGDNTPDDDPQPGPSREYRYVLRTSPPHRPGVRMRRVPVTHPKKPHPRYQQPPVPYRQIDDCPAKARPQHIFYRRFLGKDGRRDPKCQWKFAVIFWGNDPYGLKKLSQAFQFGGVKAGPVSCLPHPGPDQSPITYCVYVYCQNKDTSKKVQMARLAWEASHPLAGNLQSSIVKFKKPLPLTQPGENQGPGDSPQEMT
# T cruzi repl: blocks replication of Trypanosoma cruzi; T. cruzi beta-gal in NIH3T3, luminescence, 90 h; inhibition, % (test concentration not listed); 300,000 tested, 1.4% active;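 active means mean inhibition across valid replicates above about 55%, limit read from the data; inconclusive means mean below that limit but half or more replicates reach it; inactive means mean below it, under half of replicates reach it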;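 further: signal also drops with host cell toxicity which is not excluded here; 0% = plate median of DMSO wells and 100% = zero luminescence signal; higher percent means less beta-gal luminescence so fewer parasites; stock transfer was 50 nL into about 50 µL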
# Calb FLC: affects C. albicans growth with fluconazole; C. albicans CaCi-2 (fluconazole-resistant clinical isolate) + fluconazole, Alamar Blue growth, 48 h; growth inhibition, % (no concentration beside the values); 300,000 tested, 0.57% active;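 active means most replicates above 75%; inconclusive means exactly half above 75%; inactive means most below 75%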;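 further: all wells also contain fluconazole at 8 µg/ml as a sub-toxic cotreatment; 0% = median of DMSO wells and 100% = median of geldanamycin control wells; wells of about 8 µL received 7.5 nL stock; the first replicate is given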
# Beta apoptosis: beta cell apoptosis inhibition. protection from apoptosis, % (concentration not given with the values). INS-1E cytokine-induced death, ATP luminescence, 48 h; percent of positive-control rescue, neutral wells zero. 300,000 tested, 0.8% active;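 active means all replicates at 75% or more, or half of them and the mean; inconclusive means half reach 75% but not the mean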;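 further: 0% = cytokine-treated negative control wells and 100% = positive control rescue; higher means more ATP so stronger rescue from cytokine killing; wells of about 40 µL received 100 nL stock; the first replicate is given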
# Ecoli rRNA inh: selective bacterial rRNA inhibition in E. coli. 350,000 tested, 1.6% active. GFP signal change (wild-type ribosome), % (no concentration beside the values). AID 720706. E. coli WT GFP vs humanized-ribosome RFP mutants, fluorescence, 24 h; hits give low values; DMSO median 0, no signal -100;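 active means significant combined selectivity score with lowered wild-type GFP, culture density cut under 30%, mutant RFP and density less affected; inactive means any of these conditions unmet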; further: one replicate is shown; some compounds called inactive have numbers as strong as hits
# ALR H2O2 inh: inhibitors of human sulfhydryl oxidase ALR; P55789; purified ALR, DTT oxidation, H2O2 HRP-luminol luminescence; inhibition, % (no concentration beside the values); 290,000 tested, 3.8% active; AID 485317;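 active means mean and each replicate at 75% or more; inconclusive means only one of the two met; inactive means neither met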;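 further: stock transfer was 7.5 nL into about 7.5 µL; 0% = neutral wells and 100% = wells with inactivated enzyme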
# Ecoli rRNA inh OD600: recorded beside Ecoli rRNA inh, whose call it bears; OD600 change, %; measured here: OD600 growth;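 optical density of the mix in the first replicate; 0 = DMSO median and -100 = no signal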
# Ecoli rRNA inh RFP: further read-out of Ecoli rRNA inh, marked with its call; RFP signal change, %; measured here: RFP humanized mutant strains;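 first replicate; 0 = DMSO median and -100 = no signal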
# Active calls of the source: *; ? = inconclusive; · = no result given. Only part of the results is shown; the hit share may differ from the screen's.
SMILES,B2AR ag,A1 inh,LANA-H2A inh,T cruzi repl,Calb FLC,Beta apoptosis,Ecoli rRNA inh,Ecoli rRNA inh OD600,Ecoli rRNA inh RFP,ALR H2O2 inh
CCOc1ccc(CCNC(=O)C2=C(C)C(=O)OC23CCCCC3)cc1OCC,-4.7,-0.4,2.3,-10.8,-15.1,-4.5,0.2,-1.3,-2.0,-3.8
CCOc1ccccc1NC(=O)CSc1nnc(NC(=O)c2ccco2)s1,3.5,-0.7,0.3,-3.2,0.0,5.1,1.1,7.1,-2.3,-2.9
CCN(CC(=O)Nc1ccc(NC(C)=O)cc1)C(=O)/C=C/c1cccs1,-8.9,0.4,2.6,-8.9,11.4,0.7,11.2,5.8,-0.6,-5.1
COc1ccc(NC(=O)CSCc2ccccc2C)cc1,-8.3,0.7,3.8,4.1,33.7,5.9,·,·,·,84.0*
COc1ccc(OC)c(-c2csc(NC(=O)Cc3cc(OC)c(OC)c(OC)c3)n2)c1,2.6,0.4,8.3,12.4,53.7,28.6,-0.8,0.2,8.2,-2.7
CCc1ccc(N(CC(=O)NC(C)(C)C)C(=O)CCC(=O)Nc2ccccn2)cc1,-2.9,0.9,3.0,-9.9,-7.3,-2.2,-3.4,-8.3,-7.2,-0.3
Cc1ccc(N=C2NC(=O)CC(C(=O)Nc3ccc4c(c3)OCO4)S2)cc1 (centres undefined),-2.1,-0.6,-1.2,11.4,-0.4,-4.1,9.2,-4.1,0.1,-2.4
Cc1nn(-c2ccc(F)cc2)c2sc(C(=O)O)cc12,-0.4,0.4,-0.6,-30.1,25.6,-0.9,0.4,-12.8,-3.6,20.3
Cc1ccc(NC(=O)C2C3CCCC2C3c2ccccc2)c(C)c1 (centres undefined),-2.7,0.7,3.6,15.9,-1.8,-4.0,·,·,·,-11.2
Cc1[nH]n(-c2ccccc2)c(=O)c1N=Nc1ccc(C#N)cc1,5.8,0.4,-4.5,-5.5,-1.7,-8.6,12.3,10.2,-0.5,-10.2
COc1ccccc1NC(=O)C(CCS(C)(=O)=O)N1C(=O)c2ccccc2C1=O (centres undefined),-9.3,0.5,0.4,-10.6,-2.8,-0.6,·,·,·,1.4
CCC[C@H]1CCCC/C=C\CCCC(=O)OCCN1C(=O)OC(C)(C)C,-5.0,-0.4,0.3,·,·,-7.3,·,·,·,-2.3
S=C1NC[C@H](CC2CCCCC2)N1CCc1cccc2ccccc12,2.6,-0.6,-2.6,-1.8,-16.8,-2.2,-10.1,-24.4,6.2,·
O=C(CNc1ccc2ccccc2c1)N/N=C/c1ccc([N+](=O)[O-])o1,2.5,-0.4,10.8,68.5*,59.3,6.0,·,·,·,-14.3
COc1ccc(N2CCN(c3oc(-c4ccco4)nc3C#N)CC2)cc1,-8.4,-1.6,2.1,10.3,26.1,1.6,·,·,·,33.3
CC12CCC(C/C1=N\N=C1\NC(=O)/C(=C\c3cccc(Br)c3)S1)C2(C)C (centres undefined),4.8,-0.2,3.1,19.3,1.7,19.7,·,·,·,-4.6
COc1ccc(-c2cc(C(=O)N3CC(C)CC(C)C3)c3ccccc3n2)cc1OC (centres undefined),10.3,-0.1,·,9.6,0.0,0.4,-7.2,-7.8,8.1,·
COc1ccc2c(CC(=O)OCC(=O)N3CCc4ccccc43)coc2c1,-7.2,0.1,-0.9,-10.3,0.3,1.1,·,·,·,0.0
CCCCNC(=O)N1CCN(C(=O)c2ccco2)CC1,-2.2,-0.1,0.4,-12.1,-4.3,-1.1,2.3,0.1,0.3,-7.9
O=C(NNS(=O)(=O)c1ccccc1[N+](=O)[O-])c1cccnc1,-6.6,0.1,2.5,-2.0,-4.1,-0.5,8.1,-2.8,-0.9,3.7
CCOc1ccc(C(=O)NC(=S)Nc2cccc(S(=O)(=O)NC3=NCCC3)c2)cc1,30.0,0.2,1.0,-2.3,14.2,2.7,9.6,12.1,1.3,·
CC(C)(C)c1[nH]nc2c1C(c1cccnc1)C(C#N)=C(N)O2 (centres undefined),4.0,-0.3,3.0,1.2,5.9,-5.9,8.7,-2.2,-5.8,3.6
CSc1nnc(C)c(/C=C/Nc2ccc(F)cc2F)n1,5.4,0.6,-2.6,12.4,22.7,-4.3,10.3,4.4,11.2,-25.7
CC1(C)Oc2ccc(C(=O)NNC(=O)Nc3ccccc3)cc2NC1=O,4.2,-0.3,6.5,-3.4,?,-1.8,-2.9,-0.9,-2.0,7.8
Cc1ccc(C(=O)NC(C)C2CC3CCC2C3)c(C)c1 (centres undefined),1.1,0.4,1.2,2.7,-4.0,2.6,0.1,1.2,-0.9,0.2
O=C(N/N=C/c1ccc(OC(=O)c2cccc(Br)c2)cc1)c1cccnc1,0.2,-0.3,7.7,-3.8,22.3,2.2,3.2,7.1,-3.4,-3.2
COc1ccccc1NS(=O)(=O)c1cc(N2Cc3ccccc3C2=N)ccc1N1CCOCC1,4.3,1.2,-7.2,-0.1,9.9,11.3,-18.4,-4.7,-1.2,·
C=CCOC(=O)C1=C(C)NC(=O)NC1c1cc(Cl)cc(Cl)c1OC (centres undefined),-1.0,0.2,-4.5,7.8,10.2,·,-0.4,1.7,-0.8,5.2
COc1cc(OC)cc(C(=O)NCc2ccc3c(c2)cc(C)n3C)c1,-13.3,-0.1,-0.9,31.3,-13.0,4.2,-2.5,6.0,43.4,-3.9
COc1ccc(OCCn2c(=N)n(CCO)c3ccccc32)cc1,-3.1,-0.2,-5.0,3.8,7.0,-0.6,·,·,·,-3.5

# Quoted at random: four entries already listed
SMILES,B2AR ag,A1 inh,LANA-H2A inh,T cruzi repl,Calb FLC,Beta apoptosis,Ecoli rRNA inh,Ecoli rRNA inh OD600,Ecoli rRNA inh RFP,ALR H2O2 inh
CSc1nnc(C)c(/C=C/Nc2ccc(F)cc2F)n1,5.4,0.6,-2.6,12.4,22.7,-4.3,10.3,4.4,11.2,-25.7
CCOc1ccccc1NC(=O)CSc1nnc(NC(=O)c2ccco2)s1,3.5,-0.7,0.3,-3.2,0.0,5.1,1.1,7.1,-2.3,-2.9
Cc1nn(-c2ccc(F)cc2)c2sc(C(=O)O)cc12,-0.4,0.4,-0.6,-30.1,25.6,-0.9,0.4,-12.8,-3.6,20.3
COc1ccccc1NS(=O)(=O)c1cc(N2Cc3ccccc3C2=N)ccc1N1CCOCC1,4.3,1.2,-7.2,-0.1,9.9,11.3,-18.4,-4.7,-1.2,·

# More records.
SMILES,B2AR ag,A1 inh,LANA-H2A inh,T cruzi repl,Calb FLC,Beta apoptosis,Ecoli rRNA inh,Ecoli rRNA inh OD600,Ecoli rRNA inh RFP,ALR H2O2 inh
Cc1ccc(C)c(SCC(=O)OCC(=O)NCCNC(=O)COC(=O)CSc2cc(C)ccc2C)c1,5.7,0.7,-1.2,0.5,-2.9,3.3,4.2,3.2,2.1,·
CCCn1cc(C(=O)N(C)C2CCCN(Cc3ccccc3F)C2)c(C)n1 (centres undefined),1.6,-0.6,1.8,3.5,-11.6,-1.0,21.9,15.6,2.1,2.2
Cc1cc2oc(=O)cc(CNc3ccccc3F)c2cc1O,1.1,-0.1,5.9,58.6*,0.4,9.7,-2.1,-3.0,1.3,-3.6
O=C(CN1CCCCC1)Nc1cccc(Br)c1,8.0,1.6,1.7,-15.0,0.2,0.6,·,·,·,-3.7
CN1C(=O)c2ccc(C(=O)Nc3ccc4c(c3)OCO4)cc2C1=O,4.0,-7.5,3.8,-10.3,2.7,-4.4,11.7,15.1,3.6,-0.1
Cc1ccccc1OCC(=O)Nc1sc2c(c1C#N)CCC2,-7.9,0.1,2.6,19.2,-6.1,2.2,-2.1,-6.7,1.1,-4.9
COc1ccc(C)cc1NC(=O)CNC(=O)[C@@H]1Cc2ccccc2CN1,14.6,0.1,0.3,0.1,-5.5,2.5,1.3,-4.4,0.7,2.7
O=C(CSc1nnc2c(n1)[nH]c1ccccc12)Nc1nncs1,-9.5,-0.3,6.4,-7.6,1.0,0.2,-5.2,-3.3,-1.9,·
Cc1nc(NC(=O)C2CC2)sc1C(=O)Nc1ccccc1,-7.6,1.2,-5.0,-11.7,12.7,3.2,-0.1,0.5,-0.6,-15.7
COc1ccccc1N1CCN(C(=O)C2Cc3ccccc3CN2C(=O)c2ccco2)CC1 (centres undefined),5.0,0.4,7.3,·,·,-0.5,-3.0,-5.7,-3.9,19.8
CN(/N=C/c1ccco1)C1=NS(=O)(=O)c2ccccc21,-2.9,0.4,1.5,0.5,-1.8,·,12.1,6.5,10.3,-4.3
Cn1c(=O)c2cnc(-c3ccc(C(F)(F)F)cc3)nc2n(C)c1=O,-3.7,0.1,2.9,-4.7,-4.8,4.6,·,·,·,4.2
O=C(Nc1ccc(NC(=O)c2ccco2)nc1)c1cccnc1,-3.5,-3.9,-4.7,0.0,-3.1,0.2,·,·,·,-0.3
CCOc1cc(C2c3c(oc4cc(C)c(Cl)cc4c3=O)C(=O)N2Cc2ccco2)ccc1O (centres undefined),1.3,-1.1,-4.6,4.5,26.6,1.7,·,·,·,-38.9
CC(C)N1C(=O)CCC1C(=O)N1CCN(c2ccc(F)cc2)CC1 (centres undefined),-5.0,0.5,6.2,-5.7,3.0,-0.1,0.6,4.4,-5.4,·
O=C(/C=C/c1ccc2c(c1)OCCO2)N1CCN(c2ccc(F)cc2)CC1,-5.7,-0.4,-3.3,-6.1,11.6,5.1,15.5,11.6,2.9,·
CN(C)CC(O)COc1ccc(-c2ccc(C#N)cc2)cc1 (centres undefined),·,0.1,1.0,12.5,-8.5,·,·,·,·,·
CCN1CCc2nc(NC(=O)c3ccccc3)sc2C1,-6.0,-2.2,-3.3,-9.6,-0.8,-1.3,·,·,·,7.9
CCOc1ccc(C(CC(=O)O)NC(=O)c2ccco2)cc1OC (centres undefined),-11.7,0.6,-2.1,-2.3,-3.4,3.2,7.6,1.9,-1.0,-12.2
O=c1[nH]cnc2sc3c(c12)CCCCC3,4.5,0.5,-6.6,-12.9,-0.4,-11.3,0.7,-0.9,4.8,·
COC(=O)CC1C(=O)NCCN1C(=S)NC(=O)C(c1ccccc1)c1ccccc1 (centres undefined),6.2,0.5,1.0,1.0,1.0,-6.5,-25.9*,-19.8*,-0.4*,-1.7
Cc1cc(Cl)ccc1OCCCC(=O)N1CCCCC1,-4.7,1.3,-0.1,23.6,-7.4,1.5,·,·,·,-5.2
COc1nccc(C(F)(F)F)c1C(=O)NC(=O)Nc1c(C)cccc1C,8.2,1.2,-5.8,-11.7,-14.7,-8.1,-3.5,-3.5,-3.4,-3.1
O=C1CCCC/C1=C/Nc1ccc(S(=O)(=O)Nc2ncccn2)cc1,6.1,-0.5,-3.6,-8.5,-4.8,1.0,·,·,·,-27.6
O=C(CCCC(=O)N1CCCc2ccccc21)N1CCCc2ccccc21,1.0,-0.2,1.3,6.5,-13.8,2.6,·,·,·,-20.7
CC1=C(C(=O)OCc2ccccc2)C(c2ccccc2Br)NC(=O)N1 (centres undefined),-8.9,0.5,-0.4,0.3,0.7,4.9,-34.4*,-25.9*,-4.5*,-14.3

# Screening results: PubChem, several laboratories
